# Compound activity deposited in PubChem BioAssay by National Center for Advancing Translational Sciences (NCATS).
# Prx2 Sm inh: Schistosoma mansoni Prx2 inhibition | S. mansoni Prx2 activity coupled to TGR/GSH (TGR is thioredoxin glutathione reductase), NADPH fluorescence loss, qHTS; some inactives read as strong as hits | Potency, µM | actives 0.07% (n = 65,000); active means full or partial inhibition curve with a strong effect at the top dose; inconclusive means weaker partial or single-point curve; inactive means no accepted curve; note: series up to 57 µM; many of its hits are not listed in these tables
#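 Prx2 activity was followed as the loss of NADPH fluorescence (ex 365/em 450 nm), read every 30 sec for 8 min after H2O2 start. The enzyme mix (50 nM Prx2, 25 nM TGR, GSH, NADPH; pH 7.4 phosphate buffer) was incubated with compound for 15 min at room temperature first.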
# LT uptake inh: blocks cellular internalization of anthrax lethal toxin; Cells, anthrax lethal toxin internalization, FRET ratio (460/530); AID 912; Potency, µM (highest dose often 40 µM), inactives show at the highest dose activity change, negative = inhibition, most hits filed as inhibitors; actives 0.67% (n = 70,000); active = well fitted falling ratio curve with the 530 nm signal flat; inconclusive = other ratio curves, or a change in one channel alone; inactive = flat curves in the ratio and both channels; the % refers to the ratio; note: % is set by controls: 0 for no effect and ±100 for the full control effect; nearly all actives have a fitted effect of over 50% in size; tested in ME-180 cells; beta-lactamase reporter
# The depositor's hits bear a star; u = inconclusive; x = no result given; [ ] = remark or other dose. Potency is the fitted concentration of half-maximal effect. A portion of the library, so the mix of outcomes need not match the whole.
Molecule | Prx2 Sm inh | LT uptake inh
COc1ccc(-c2n[nH]c(C(F)(F)F)c2-c2cc3ccccc3o2)c(O)c1 | >57 | u
Cc1ccccc1CSc1nc2c(c(=O)[nH]1)CCC2 | >57 | 8.4%
COc1ccc(N2CCN(Cc3cc(=O)oc4ccc(Cl)cc34)CC2)cc1 | >57 | -6.4%
CCC(=O)NCCc1cc2cc(C)c(C)cc2[nH]c1=O | >57 | -0.1%
Cc1n[nH]c(=O)nc1NCc1ccccc1Cl | >57 | -1.7%
CCCc1cc(-c2[nH]ncc2-c2ccc3c(c2)OCCCO3)c(O)cc1O | >57 | u
COc1ccc(NC(=O)C2CCCCN2S(=O)(=O)c2ccc(F)cc2)cc1 (stereo not given) | >57 | -5.3%
Cc1cc(=O)oc2cc(NC(=O)C3COc4ccccc4O3)ccc12 (stereo not given) | >57 | u
NC(CCl)=N[C@H]1CN2CCC1CC2 | >57 | -7.2%[8 µM]
Cc1nnc(SCCn2c(N3CCC(C)CC3)nc3c2c(=O)n(C)c(=O)n3C)s1 | >57 | -6.6%
Cc1ccc2[nH]c(=O)c(CN(Cc3cccs3)Cc3nnnn3CC3CCCO3)cc2c1 (stereo not given) | >57 | -4.6%
Cc1cc(-c2ccccc2C(=O)NCc2ccccc2)on1 | >57 | -0.3%
Cc1cccc(-c2noc(CCc3ccccc3)n2)c1 | >57 | u
CCN(CC)C(=O)Oc1ccc2c(=O)c(-c3ccc(OC)cc3)coc2c1 | >57 | u
CCNC(=O)CC1SC(=Nc2ccccc2C)N(C)C1=O (stereo not given) | >57 | -4.2%
CC(=O)[C@@H](C)CCO[C@@]1(C)OCC[C@@H]1C | >57 | 0.5%[8 µM]

# Compounds listed so far containing an aryl thioether with sulfur outside any ring:
Molecule | Prx2 Sm inh | LT uptake inh
Cc1ccccc1CSc1nc2c(c(=O)[nH]1)CCC2 | >57 | 8.4%
Cc1nnc(SCCn2c(N3CCC(C)CC3)nc3c2c(=O)n(C)c(=O)n3C)s1 | >57 | -6.6%

# (more compounds)
Molecule | Prx2 Sm inh | LT uptake inh
CCN(C(=O)c1coc(=O)c2ccccc12)c1cc(OC)ccc1OC | >57 | u
CC(=Nc1ccccc1)Nc1ccccc1 | x | -15.1%
c1ccc(-c2nnc(Cn3c4ccccc4c4nc5ccccc5nc43)o2)cc1 | >57 | 7.1%
Cc1cc(NC(=O)CSc2nc3sc4c(c3c(=O)n2C)CCCC4)no1 | >57 | 2.3%
O=C(NCCN1C(=O)CSC1=O)c1ccccc1 | >57 | -1.3%
CC[C@@H]1OC(=O)[C@H](C)[C@H](O[C@@H]2C[C@](C)(OC)[C@H](O)[C@H](C)O2)[C@H](C)[C@H](O[C@@H]2O[C@@H](C)C[C@@H](N(C)C)[C@@H]2O)[C@](C)(O)C[C@H](C)C(=O)[C@H](C)[C@H](O)[C@]1(C)O | >57 | u
COC(=O)[C@H](Cc1ccccc1)NC(=O)N1CC(C)OC(C)C1 (stereo not given in full) | >57 | -7.1%
Cc1cc2ccccc2c(=O)n1CC(=O)Nc1ccc2c(c1)OCO2 | >57 | -2.7%
COc1ccccc1C(=O)N1CCN(c2cccc(C(F)(F)F)c2)CC1 | >57 | -13.4%
O=C(COc1ccc(S(=O)(=O)N2CCCCC2)cc1)N1CCN(Cc2ccccc2)CC1 | >57 | -9.3%
COc1ccc(CNC(=O)C2CC(=O)N(c3ccc(OCC(=O)N4CCCCC4)cc3)C2)cc1 (stereo not given) | >57 | 9.7%
CCOC(=O)C(NC(=O)c1cccnc1)(Nc1cccc(C)n1)C(F)(F)F (stereo not given) | >57 | -10.6%
CC(C)(C)C(=O)CC(=O)Nc1ccc(Cl)c(N)c1 | >57 | -8.5%
CCSc1nnc(NC(=O)CN(C)S(=O)(=O)c2ccc(F)cc2)s1 | >57 | 3.1%
O=C(Nc1ccccc1C(=O)NCc1ccco1)NC1CCCCC1 | >57 | 14.7%
CCc1ccc(OCCCC(=O)O)c(Br)c1 | >57 | x
CCOc1ccc(N2C(=O)CSC23CCCCC3)cc1 | >57 | -15.0%
CC1(C)CC(=O)c2cnc(N3CCN(c4ccccc4)CC3)nc2C1 | >57 | 0.7%
O=C(CSc1nnc(Cc2cccs2)n1C1CCCCC1)N1CCCc2ccccc21 | >57 | u
N#CC1=C(N)N(c2ccc(Oc3ccccc3)cc2)C(=O)C1 | >57 | 1.2%
Cc1onc(-c2ccccc2)c1C(=O)n1nnc2ccccc21 | >57 | 0.0%
CCSCc1nnc(SCC(=O)Nc2cccc(SC)c2)n1C | >57 | 2.8%
C[C@@H](N)Cn1ccc2cc(F)c(Cl)cc21 | >57 | -22.4%
Cc1nc(-c2ccccc2)nc2[nH]c(C(C)C)cc(=O)c12 | >57 | -1.0%
O=C(Oc1ccccc1)N1CCC[C@@]2(CCN(c3ccncc3)C2)C1 | >57 | -10.9%
CN(C)Cc1ccccc1-c1cncnc1Nc1ccncc1 | >57 | -12.2%
Nn1c(SCc2nc3ccccc3[nH]2)nnc1-c1cccnc1 | x | 1.7%
CCCCn1c2nc3ccccc3nc2c2c(=O)n(CCC)cnc21 | >57 | -2.9%
CCOC(=O)c1ccccc1NC(=O)CN1CCC(n2nnc3cc(F)ccc32)CC1 | >57 | -0.4%
O=C(c1csnn1)N1CCC[C@@]2(CCN(Cc3ccncc3)C2)C1 | >57 | 4.4%
O=C(NC1CCCCC1NC(=O)c1cccs1)c1cccs1 (stereo not given) | >57 | -6.8%
COc1cc2[nH]c(=O)n(CCC(=O)N3CCN(c4cccc(C)c4C)CC3)c(=O)c2cc1OC | >57 | -4.9%

# (listing goes on)
structure	Prx2 Sm inh	LT uptake inh
CC(C)C(=O)N1CCC(CN=Cc2c(O)n(C3CCCCC3)c(=O)n(C3CCCCC3)c2=O)CC1	x	u
CCC(c1nnc(SCC(=O)NCCc2ccc(Cl)cc2Cl)o1)N(C)C (stereo not given)	>57	-5.5%
CCOC(=O)CC(=O)Nc1nnc(C(C)C)s1	>57	x
Oc1cccc(Nc2nc(NCC3CCCO3)c3ccccc3n2)c1 (stereo not given)	>57	-22.3%
O=C(COC(=O)c1cc(-c2ccco2)nc2ccccc12)NCc1ccc2c(c1)OCO2	>57	u
COc1ccc(C(=O)N2CCC3(CC2)CCN(C(c2ccccc2)c2ccccc2)CC3)cc1	>57	-2.6%
CCC/C=C(\CCC)C(NS(=O)(=O)c1ccc(C(F)(F)F)cc1)c1ccc(-c2ccccc2)cc1 (stereo not given)	>57	-17.6%
CCN(C(=O)CN1CCN(C)CC1)c1cccc2ccccc12	>57	-15.5%
COc1ccc(S(=O)(=O)N(C)CC(=O)Nc2c(F)cccc2F)cc1	>57	6.3%
O=C(NC1=NCCS1)Nc1ccccc1	>57	u

# Taken from above:
# In Prx2 Sm inh, `COc1ccc(S(=O)(=O)N(C)CC(=O)Nc2c(F)cccc2F)cc1` has the entry >57
# In Prx2 Sm inh, `CCC(c1nnc(SCC(=O)NCCc2ccc(Cl)cc2Cl)o1)N(C)C` (stereo not given) has the entry >57
# In Prx2 Sm inh, `O=C(NC1=NCCS1)Nc1ccccc1` has the entry >57
# In Prx2 Sm inh, `CCOC(=O)CC(=O)Nc1nnc(C(C)C)s1` has the entry >57

# Arranged by length of the SMILES (smallest number first): three of the compounds above.
structure	Prx2 Sm inh	LT uptake inh
O=C(NC1=NCCS1)Nc1ccccc1	>57	u
Oc1cccc(Nc2nc(NCC3CCCO3)c3ccccc3n2)c1 (stereo not given)	>57	-22.3%
O=C(COC(=O)c1cc(-c2ccco2)nc2ccccc12)NCc1ccc2c(c1)OCO2	>57	u

# Other results follow.
structure	Prx2 Sm inh	LT uptake inh
Cn1c(Cn2c(=O)sc3ccccc32)nnc1SCc1cccc(F)c1	>57	-7.7%
O=C1C(C=NCCN2CCOCC2)=C(O)c2ccccc21	x	-16.7%
COc1ccc(C2C3=C(CC(C)(C)CC3=O)Oc3ncn(CC(C)C)c(=N)c32)cc1 (stereo not given)	>57	1.2%
COc1ccc(Cn2nnnc2C(c2cc3cc(C)ccc3[nH]c2=O)N2CCOCC2)cc1 (stereo not given)	>57	u
Cc1csc(=O)n1CCC(=O)O	>57	0.2%
Cc1nnc(NC(=O)c2c(F)c(F)c(F)c(F)c2F)s1	>57	18.2%
NC(=O)c1ccccc1N=Cc1ccccn1	>57	-6.9%
CCOC(=O)CC(N)c1ccc2c(c1)OCO2 (stereo not given)	>57	5.2%
N#Cc1ccccc1N=C1CCCN1Cc1ccccc1	>57	-13.1%
CSc1cc2c(cc1C(F)(F)F)N(C(=O)Nc1cccnc1)CC2	>57	u
CCOC(=O)c1sc2nc(CC(=O)OC)nc(NCCN3CCOCC3)c2c1C	>57	u
CCn1c(SCC(=O)NCCc2ccc(Cl)cc2)nnc1-c1cccs1	>57	u
O=C(OCC(=O)N1CCc2ccccc21)C1=COCCO1	>57	-2.0%
O=C(/C=C\c1ccc(O)c(O)c1)O[C@@H](Cc1ccc(O)c(O)c1)C(=O)O	>57	u
Cn1cccc1C(=O)NC(=O)CSc1nnc(C2CC2)n1-c1ccccc1	>57	7.6%
Cc1ccc(CCNC(=O)C2CCN(S(=O)(=O)c3c(C)nn(C)c3C)CC2)cc1	>57	-25.5%
Cc1c(C(=O)O)oc2ccc(S(=O)(=O)NCc3ccc(F)cc3)cc12	>57	u
Cc1c(NC(=O)CSc2nc3c(cnn3-c3ccccc3)c(=O)[nH]2)c(=O)n(-c2ccccc2)n1C	>57	10.8%
CCOC(=O)C(C)n1cnc2c(oc3ccccc32)c1=O (stereo not given)	>57	u
COc1ccccc1CNC(=O)c1ccc(CS(=O)(=O)c2ccccc2OC)o1	>57	-22.4%
N#CC1=C(N)Oc2n[nH]c(-c3ccc(F)cc3)c2C1c1cccc(OC(=O)N2CCOCC2)c1 (stereo not given)	>57	9.7%
O=C(COC(=O)C1(c2ccccc2F)CCCC1)N1CCN(C(=O)c2ccco2)CC1	>57	-0.1%
CCOC(=O)N1CCC(N2C(=O)c3ccccc3C2Nc2ccc(Cl)cn2)CC1 (stereo not given)	>57	-15.0%
Cc1cnc(CNc2nc(-c3ccccc3C(F)(F)F)nc3ccccc23)cn1	>57	2.4%
COC(=O)c1ccccc1NC(=O)c1nc2nc(C)cc(C(F)F)n2n1	>57	-6.2%
Cc1noc(C)c1COC(=O)COc1ccc2c(C)cc(=O)oc2c1	>57	-16.0%
CCCOC(=O)CCc1n[nH]c(=O)[nH]c1=O	>57	-8.4%
COC(=O)C1(Cc2ccccc2)C=C2C(=C(C(C)C)C(=O)C2C)CN1 (stereo not given)	>57	-7.0%
O=C(NCC1CCCO1)c1cccc(-n2cnnn2)c1 (stereo not given)	>57	u
COc1ccccc1CNc1n[nH]c(NCc2ccccc2OC)n1	>57	13.4%
CCOC(=O)C1CCCN(C(=O)C2CCCN(S(C)(=O)=O)C2)C1 (stereo not given)	>57	13.8%
O=C(c1ccco1)N1CCN(C(=O)c2cnn3c(C(F)(F)F)cc(-c4cccs4)nc23)CC1	>57	u
O=C(CCNS(=O)(=O)c1cccc2nonc12)N1CCN(c2cccc(Cl)c2)CC1	>57	-4.7%
O=C(CCN1C(=O)c2ccccc2C1=O)NC1=NCCS1	>57	14.8%
Cc1cc2oc(=O)cc(CN3CCN(C/C=C/c4ccccc4)CC3)c2cc1O	>57	x
CCOc1ccc(C2/C(=C(\O)c3cccc(OC)c3)C(=O)C(=O)N2c2cc(C)on2)cc1OC (stereo not given)	>57	-7.1%
COC(=O)c1[nH]c2ccc(C)cc2c1NC(=O)CN1CCCC(C)(C)C1	>57	u
O=P(O)(CCCP(=O)(O)CCc1ccccc1)CCc1ccccc1	>57	-18.4%
CC(C)CN1CCC2(CC1)CCN(C(=O)c1csnn1)CC2	>57	1.5%
O=C(Oc1cc2oc(=O)c3c(c2cc1Cl)CCCC3)c1ccco1	18.7*	u
Cc1csc2ncc(C(=O)Nc3ccc(C(F)(F)F)cc3)c(=O)n12	>57	u
CCc1ccc2[nH]c(=O)c(CN(CCN(C)C)C(=O)Nc3ccccc3OC)cc2c1	>57	15.4%
Cc1[nH]c2ccc(-c3nnc(SCC(=O)c4ccccc4F)o3)cc2c1C	>57	u
CCOc1ccc(-n2c(=O)cc(N3CCN(c4ccccc4)CC3)[nH]c2=O)cc1	>57	-10.6%
O=C(CSc1nnc2sc3ccccc3n12)NCc1ccco1	>57	9.4%
CCOC(=O)N1CCN(c2cc3[nH]c(=S)[nH]c3cc2F)CC1	>57	23.7%
Cc1ccc(Nc2nc(CSc3nnnn3-c3ccccc3)cs2)cc1	>57	u
O=C(O)C1C2C=CC(C2)C1C(=O)Nc1ccc2c(c1)OCCO2 (stereo not given)	>57	11.2%
Cc1noc(C)c1C(=O)N1CCC2(CC1)CCN(C(c1ccccc1)c1ccccc1)CC2	>57	u
CC1CCC(C(=O)NC(C(=O)N2CCN(c3ccccn3)CC2)C(C)C)CC1 (stereo not given)	>57	-7.1%

# (listing goes on)
structure	Prx2 Sm inh	LT uptake inh
CC1NC(=O)NC1CCCCC(=O)O (stereo not given)	x	8.1%
O=C(NCc1ccncc1)c1ccc(Cl)c(S(=O)(=O)N2CCOCC2)c1	>57	-9.0%
O=C(Cc1nn[nH]n1)NCc1ccccc1Cl	>57	-11.9%
COCCn1c(-c2ccccc2)nc2oc3ccccc3c(=O)c2c1=O	>57	x
Cc1ccc(N)c([N+](=O)[O-])c1	x	7.0%
Nc1nc(C2C(=O)CCCC2=O)cs1	>57	-7.4%
O=c1c2[nH]c3ccc(Cl)cc3c2ncn1Cc1ccccn1	>57	u
CC(=O)c1ccc(-c2nc3ccccc3n2C)o1	>57	4.6%
O=c1[nH]c(=O)n(-c2cccc(Cl)c2)c(O)c1C=NCCCN1CCOCC1	>57	u
